# Bioassay records deposited in PubChem by National Center for Advancing Translational Sciences (NCATS).
# FEN1 inhibitor – qHTS Assay for the Inhibitors of Human Flap endonuclease 1 (FEN1); 390,000 tested, 0.35% active; Potency, µM (top dose mostly 114 µM), for inactives: at the highest dose activity change, negative = inhibition, most hits filed as inhibitors; AID 588795, 2011; Recombinant FEN1 flap cleavage, fluorescence, 15 min; also: nearly all actives have a fitted effect of over 65% in size
# Target sequence (P39748 whole entry, looked up): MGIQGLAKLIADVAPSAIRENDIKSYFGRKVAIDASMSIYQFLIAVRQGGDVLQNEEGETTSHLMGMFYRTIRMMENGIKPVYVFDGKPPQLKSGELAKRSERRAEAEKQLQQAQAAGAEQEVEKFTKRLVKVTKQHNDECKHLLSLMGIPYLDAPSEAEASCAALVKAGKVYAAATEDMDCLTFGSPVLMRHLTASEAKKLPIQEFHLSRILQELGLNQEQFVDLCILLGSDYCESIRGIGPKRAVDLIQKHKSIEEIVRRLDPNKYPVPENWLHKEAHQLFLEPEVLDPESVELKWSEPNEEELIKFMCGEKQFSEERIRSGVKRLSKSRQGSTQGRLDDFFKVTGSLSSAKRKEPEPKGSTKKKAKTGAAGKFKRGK
#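 With each library titrated from low to high concentration, compounds met 10 nM FEN1 for 15 min at room temperature before 50 nM substrate was added; readings at 0 and 15 min fed four-parameter Hill curve fits.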
# KAT2A inh – qHTS Assay for Inhibitors of GCN5L2; Histone acetyltransferase KAT2A (Homo sapiens), Q92830; GCN5L2 HAT assay, ThioGlo1 CoA-SH fluorescence; Potency, µM (series often up to 58.9 µM), for inactives: top-dose activity change, negative = inhibition, most hits filed as inhibitors; 390,000 tested, 0.21% active; AID 504327, 2011
#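 GCN5L2 (20nM final) in 50mM HEPES, 0.1mM EDTA pH 7.5, 0.01% Tween-20 was preincubated 15 min at room temperature with compound, then given ThioGlo1 (50uM), H3(1-25) peptide (75uM) and acetyl-CoA (70uM); CoA-thiol fluorescence (Ex340/Em540) was read at 0 and 20 min.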
# An asterisk follows results filed as active; ? = inconclusive; & = joins results of further samples; [ ] = dose if it differs, or a comment. Calls follow the shape of the dose curve; as a rule, active = well fitted curve in the direction sought with a large enough effect; inconclusive = small, poorly fitted or top-dose-only effect, or another doubt; inactive = no such curve, though single readings can be large; an effect the other way counts as inactive or inconclusive. % is scaled to controls: 0 for no effect and ±100 for the full control effect; potency is read from the fitted curve at half-maximal effect.
structure,FEN1 inhibitor,KAT2A inh
CCN1CCN(CCCNC(=O)c2ccc(/C=C3/Oc4ccccc4N(Cc4cccc(C)c4)C3=O)cc2)CC1,10.3%,-13.3%
CN1CCN(C(=O)c2ccc3c(c2)NC(=O)C(C)(C)O3)CC1,3.5%,1.2%
COc1ccc(N2CCN(C(=O)c3c(Cl)cnn3C)CC2)cc1,1.8%,0.8%
CCCCn1c(-c2csc(CCC)c2)n[nH]c1=S,-15.7%,3.8%
CCOC(=O)C1CCN(C(=O)c2cc(C(C)(C)C)nn2Cc2ccccc2)CC1,11.9%,-12.7%
COc1cccc(C(=O)NCCS(=O)(=O)N2CCCCCC2)c1,-11.0%,-7.1%
Cc1ccc(S(=O)(=O)CCC(=O)OC(C)C(=O)NC2CCCCC2C)cc1 (configuration not stated),0.2%,-24.5%
O=C1CSC(c2cccnc2)N1Cc1ccc(Cl)cc1 (configuration not stated),-9.5%,-8.8%
CCCn1c(=O)c(C(=O)Nc2ccccc2C(=O)OC)c(O)c2ccccc21,-3.1%,-5.5%
CCCn1c(=NC(=O)c2cc3ccccc3o2)c(C(=O)OCC)cc2c(=O)n3ccccc3nc21,17.1%,-7.8%
Cc1ccccc1C(=O)N1CCC(C(=O)NC2CCCC2)CC1,-4.3%,-2.0%
O=C(NCc1cccnc1)c1cc(Sc2ccccc2Cl)nc2ccccc12,-5.8%,-3.4%
COc1cc(NC(=O)c2cc3c(=O)n(Cc4cccs4)ccc3nc2C)cc(OC)c1OC,11.0%,-4.1%
CC(=O)c1cccc(NC(=O)c2ccco2)c1,0.6%,-4.5%
COc1cc(NC(=O)C/C(C)=N/NC(=O)Cc2ccc(Cl)cc2)c(OC)cc1Cl,-3.7%,-5.4%
FC(F)(F)c1cc(C(F)(F)F)c2ccc(N3CCN(c4ccc(Cl)cc4)CC3)nc2n1,-13.3%,-10.7%
Cc1c(NC(=O)CSC2=C(C#N)C(c3ccccc3F)CC(=O)N2)c(=O)n(-c2ccccc2)n1C (configuration not stated),3.8%,-3.9%
COc1ccccc1Nc1nn2c(=O)c3ccc(C(=O)NC(C)c4ccccc4)cc3nc2s1 (configuration not stated),-2.7%,-4.1%
O=C(NC(=S)Nc1ccc(Cc2ccncc2)cc1)c1ccccc1,-15.4%,-4.2%
COc1ccc(C)cc1N(CC(=O)Nc1cccnc1)S(=O)(=O)c1ccccc1,1.1%,0.9%
CN1CCN(C2Cc3ccccc3Sc3ccc(Cl)cc32)CC1 (configuration not stated),-17.5%,-27.7%&-19.9%&-4.6%
Cc1cccc(-c2nc(CSc3nncn4c3cc3oc(C)cc34)c(C)o2)c1,-13.6%,-20.6%
COc1ccc(-c2nn(-c3ccccc3)cc2/C=N/NC(N)=S)cc1OC,1.6%,-5.9%
C=CCn1c(COc2cccc(C)c2)nnc1SCn1nnc2ccccc2c1=O,6.8%,1.4%
COc1ccc(-n2c(SCC(N)=O)nc3sc4c(c3c2=O)CCN(C)C4)cc1,5.7%,-19.3%
CCOc1ccc(N(CC(=O)Nc2ccccc2C(=O)N2CCCC2)S(C)(=O)=O)cc1,15.6%,-1.0%
Cc1cc(O)c(NC(=O)c2ccco2)cc1C,1.2%,-2.5%
CCN(CC(=O)Nc1cc(Cl)ccc1C)c1ncnc2sc(C)c(C)c12,-20.0%,-7.7%
COc1cccc(NC(=O)CSc2nc3ncc(Br)cc3[nH]2)c1,-8.5%,-4.6%
Cc1nc2ccccc2nc1CN1CCN(Cc2ccc(F)c(F)c2)C(CCO)C1 (configuration not stated),-16.5%,-17.8%
Cc1cccc(NS(=O)(=O)c2cccc(C(=O)NCCCN3CCOCC3)c2)c1,4.4%,-4.4%
CCCOc1c(Cl)cc(/C=N/O)cc1OCC,-10.3%,-9.6%
Cc1cc(=O)n2[nH]c(SCc3ccc(Cl)cc3)nc2n1,6.6%,0.0%
COCCn1c(-c2ccc(-c3ccc([N+](=O)[O-])cc3Br)o2)nc2c1c(=O)[nH]c(=O)n2CC(C)C,0.6%,-3.2%
CCN(CC)c1ccc2cc(-c3nnc(-c4ccccc4)o3)c(=O)oc2c1,0.0%,-5.6%
O=C(Nc1ccc(N2CCCC2)c(Cl)c1)c1ccccc1[N+](=O)[O-],-0.1%,?
COc1cccc(C(=O)N=c2sc3cc(S(C)(=O)=O)ccc3n2C)c1,0.4%,-9.8%
CSc1ccc(/C=C(\NC(=O)c2ccco2)C(=O)N2CCCCC2)cc1,0.8%,?
O=C(CSc1nc(C(F)(F)F)cc(=O)[nH]1)N1CCCCCC1,-1.9%,-1.6%
Nc1nc(NC(=O)Cc2ccccc2)nn1-c1ccccc1,0.1%,2.0%
CCOC(=O)c1ccc(-n2ccnc2)c(NC(=O)c2cccc(Br)c2)c1,-2.1%,-0.5%
CCC1CCC2(CC1)SCC(=O)N2c1ccccc1 (configuration not stated),2.0%,-0.3%
Cc1noc(C)c1S(=O)(=O)Nc1ccc(C(=O)NC2CCCCC2C)cc1 (configuration not stated),4.1%,-13.4%
N/C(=N\OC(=O)Cc1ccc([N+](=O)[O-])cc1)c1ccccn1,-18.0%,-9.7%
CCCCN(C(=O)c1ccc(NC2CC2)c([N+](=O)[O-])c1)c1c(N)n(CCCC)c(=O)[nH]c1=O,-1.4%,-0.4%
CC(=O)c1ccc(OCC(=O)OCC(=O)Nc2sccc2C(N)=O)cc1,-1.2%,-2.5%
CCOC(=O)c1ccc(NC(=O)CSc2ccc3ccccc3n2)cc1,10.5%,1.7%
CN(C)c1ccc(/C=N/NS(=O)(=O)c2ccc(Br)cc2)cc1,5.3%,-10.6%
COc1cc(CNn2nnnc2N)cc(Br)c1OCC(=O)NC(C)(C)C,3.1%,-0.3%
CC1(C)CC(NC(=O)C23CCC(C)(C2Br)C3(C)C)CC(C)(C)N1 (configuration not stated),5.4%,1.5%
O=C(NCCN1CCN(C(=O)c2cccs2)CC1)C(=O)Nc1ccc(Br)cc1,-2.5%,-1.7%
C=C(C)C1CC=C(C)/C(=N/NC(=O)c2ccoc2C)C1 (configuration not stated),5.5%,-7.4%
COC(=O)c1cc(S(=O)(=O)N2CCC(C(N)=O)CC2)oc1C,0.4%,-26.7%
CS(=O)(=O)N1CCN(C(=O)c2ccc(Br)s2)CC1,-9.0%,1.2%
NC(=O)CSc1nc2c(oc3ccccc32)c(=O)n1-c1ccccc1F,-5.0%,-3.1%
COC(=O)c1cnc2ccccc2n1,-2.9%,0.7%
CS(=O)(=O)N(CC(=O)NCCC1=CCCCC1)c1ccc2c(c1)OCO2,-2.9%,0.0%
Cc1nn(-c2ccccc2)c(C)c1C(=O)OCC(=O)N1c2ccccc2NC(=O)C1(C)C,-18.8%,-9.0%
Cc1ccc(CN2CCN(C3CSCCSC3)CC2CCO)cc1 (configuration not stated),2.9%,3.7%
CCOc1ccc(S(=O)(=O)N(CC)CC(=O)NCc2ccco2)cc1C,0.3%,-3.9%

# Other results follow.
structure,FEN1 inhibitor,KAT2A inh
CC(=O)c1sc(NC(=O)C2=NN(c3ccccc3)C(=O)CC2)nc1C,-2.5%,3.4%
Cc1cccc(C)c1NC(=O)COC(=O)CSc1nnc(N)s1,-1.6%,-5.3%
CCN(CC(=O)Nc1c(F)cccc1F)C(=O)c1ccc(N2C(=O)c3ccccc3C2=O)cc1,-0.8%,0.1%
O=C(CCc1cnccn1)NC1CCCc2c1cnn2-c1ccc(F)cc1F (configuration not stated),-2.6%,-7.0%
CC(=O)N1CCc2cc(S(=O)(=O)NCCCN3CCC(C)CC3)ccc21,3.4%,-0.1%
O=[N+]([O-])c1cccnc1NCCNc1ncc(C(F)(F)F)cc1Cl,-22.7%,-6.2%
CC(=O)Oc1ccc(C(=O)Nc2ccccc2C(=O)N2CCCC2)cc1,15.7%,-24.2%
Cc1nc(NCCc2ccc(F)cc2)c(C#N)c(C)c1[N+](=O)[O-],-15.5%,31.2%[activator]
O=C(CSc1nc2ccsc2c(=O)n1Cc1ccccc1Cl)NCc1ccc(Cl)cc1,-0.9%,2.2%
Cc1ccccc1CNC(=O)c1c(C)oc2c1C1=NCCN1C=N2,-11.4%,-2.8%
COC(=O)c1ccccc1NC(=O)Cn1nnc(-c2ccc(OC)cc2)n1,-1.3%&-13.6%,-1.1%&2.7%
COc1ccc(NC(=O)C(NS(=O)(=O)c2ccc3c(c2)CCCN3C(C)=O)C(C)C)c(OC)c1 (configuration not stated),-3.2%,-11.3%
Cc1cc(-c2ccccc2)nc(N(C)NC(=O)c2cccc(C(F)(F)F)c2)c1S(C)(=O)=O,1.0%,-10.2%[0.501 µM]
CCN(CC(=O)NCc1ccc(Cl)cc1)C(=O)CCC(=O)c1ccc(C)cc1,3.7%,-15.3%
CCOC(=O)c1cnc(-n2cc(C)cn2)nc1Nc1ccccc1OC,6.6%,0.7%
COc1ccccc1NS(=O)(=O)c1cccc(C(=O)NN)c1,-9.9%,0.1%
COc1ccc2[nH]c3c(c2c1)CCN1C(=O)C(CC(=O)NCc2cccc(C(F)(F)F)c2)C[C@H](C(=O)N(C(C)C)C(C)C)[C@@]31C (some centres not stated),-29.5%,-14.9%
COc1ccc(/C=C2\SC(=NCc3ccccc3)NC2=O)cc1,3.8%,-2.7%
CC[C@@H](C)C(NC(=O)OC(C)(C)C)c1cn([C@@H](CCCCNC(=O)OC(C)(C)C)C(=O)N2CCN(C(=O)OC(C)(C)C)CC2)nn1 (some centres not stated),7.7%,2.1%
Cc1cc(S(=O)(=O)NCc2ccccc2)ccc1OCC(=O)NCc1ccncc1,-2.5%,-19.5%
Cc1ccc(N(CC(=O)NCC2CCCO2)C(=O)Cn2nnc(-c3cccs3)n2)cc1 (configuration not stated),-0.8%,-4.7%
CC(C)Cn1c(N)c(C(=O)COC(=O)c2cc(S(=O)(=O)N3CCOCC3)ccc2Br)c(=O)n(C)c1=O,?,-14.6%
Cc1ccc(-n2nc3c(=O)n(C(C)C(=O)NC4CC4)nc(C)c3c2C)cc1 (configuration not stated),19.1%,-4.8%
CCCCN(C(=O)c1c(CC)noc1C)c1c(N)n(CC(C)C)c(=O)[nH]c1=O,8.7%,0.8%
CCC(C)(C)n1nnnc1C(c1ccncc1)N1CCN(c2cccc(OC)c2)CC1 (configuration not stated),0.8%,0.4%
CCN(CC(=O)Nc1ccc(NC(C)=O)cc1)C(=O)/C=C/c1cn(Cc2ccccc2)nc1-c1cccnc1,-5.0%,1.5%
COc1ccc(-c2noc(-c3ccc(N4CCN(C)CC4)c([N+](=O)[O-])c3)n2)cc1,-21.7%,-4.9%
Cc1cc(-c2n[nH]c(=S)n2Cc2ccccc2)cs1,-1.0%,-2.8%
Cc1ccccc1NC(=O)CSc1nc(Nc2ccccc2)nc(N2CCOCC2)n1,8.0%,3.2%
COc1cccc(CNC(=S)NC2CCCC2)c1,-1.1%,-3.0%
C(=N\N1CCOCC1)/c1cccs1,-2.3%,2.2%
O=C(COC(=O)CCCNC(=O)c1ccc(Cl)cc1)Nc1cc(Cl)ccc1Cl,-5.1%,1.0%
CC(C)CC(=O)Nc1ccnc(-c2ccncc2)n1,21.7%,-5.7%
CCCCN1C(=O)CN(CCc2ccccc2)C(=O)C1c1ccc(OC)cc1 (configuration not stated),-7.0%,-14.6%
O=C(c1cc(C2CC2)on1)N1CCN(C(c2ccccc2)c2ccccc2)CC1,-14.4%,-6.7%
O=c1cc(O)c2c(=O)n(-c3ccccc3)c3ccccc3c2o1,1.9%,?
COc1ccccc1OCc1cc(C(=O)N(C)CCC2CCCCO2)no1 (configuration not stated),45.8%[activator],-3.7%
Brc1cc2c(cc1COc1ccc(-c3nn[nH]n3)cc1)OCO2,-0.7%,-11.2%
COc1ccccc1-c1nc(COc2ccc(Cl)cc2Cl)no1,-1.2%,2.2%
CCC(=O)N1CCc2cc(CNC(=O)c3ccc(OC)cc3)ccc21,14.6%,9.7%
O=C(COC(=O)C1CCN(C(=O)c2ccc(Cl)cc2)CC1)c1ccco1,23.6%,-8.3%

# A portion of the library; most or all hits stand in other tables.
